Bioassay records deposited in PubChem BioAssay by Broad Institute.
Env fusion inh: inhibitors of HIV-1 Env-driven cell-cell fusion, primary screen, HeLa-JRFL effector, CEM21 target cells, luciferase; 360,000 compounds, 1.1% hits; inhibition, % at 12.3 µM; AID 651610, 2012;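 active = mean replicate inhibition score of at least 50 and every replicate individually at or above 50; inconclusive = only one of the two criteria met; inactive = mean below 50 and not all replicates reaching 50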;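 note: 0% = plate neutral controls and 100% = maraviroc near 300 nM; one replicate is shown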
Yeast UUG start: modulators of yeast start codon fidelity, primary screen, whole organism, S. cerevisiae, single point, plate reader. activity score, % at 18.7 µM. S. cerevisiae UUG-firefly luciferase reporter, luminescence/redox ratio. 350,000 compounds, 0.13% hits;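 active = replicate mean at a twofold rise or more, about +100% in these data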;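 note: firefly luciferase made from a UUG start codon reports start codon fidelity; reporter light over untreated wells divided by growth signal over untreated wells; some hits fall short of that in this replicate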
* hit, by the source's call; ? = inconclusive; [ ] = dose if it differs, or a comment.

SMILES	Env fusion inh	Yeast UUG start
C[C@@H]1CCCCO[C@@H](CN(C)Cc2ccc(Cl)c(Cl)c2)[C@@H](C)CN([C@H](C)CO)C(=O)c2cc(NC(=O)c3ccccc3)ccc2O1	-21.1[16.7 µM]	6.4
NCC[C@@H]1CC[C@H](NC(=O)CCN2CCCCC2)[C@H](CO)O1	9.5[16.7 µM]	-26.3
C[C@@H]1CN([C@H](C)CO)C(=O)c2cc(NC(=O)C3CCCCC3)ccc2O[C@@H](C)CCCCO[C@H]1CN(C)C(=O)C1CCCCC1	4.4[16.7 µM]	2.4
CC(C)NC(=O)N(C)C[C@@H]1Oc2c(NC(=O)Nc3cccc4ccccc34)cccc2C(=O)N([C@@H](C)CO)C[C@@H]1C	2.5[16.7 µM]	0.6
C[C@H]1CCCCO[C@H](CN(C)CC2CCCCC2)[C@@H](C)CN([C@@H](C)CO)C(=O)c2cc(NS(=O)(=O)c3cccs3)ccc2O1	13.2[16.7 µM]	1.8
COc1ccc(S(=O)(=O)N(C)C[C@@H]2OCCCC[C@H](C)Oc3ccc(NC(=O)NC4CCCCC4)cc3C(=O)N([C@H](C)CO)C[C@H]2C)cc1	20.2[16.7 µM]	-9.0
C[C@H](CO)N1C[C@H](C)[C@H](CN(C)C(=O)CN2CCOCC2)Oc2cc(/C=C/c3ccccc3)ccc2S1(=O)=O	0.8[16.7 µM]	0.2
O=S(=O)(Cc1ccccc1)NCC[C@H]1CC[C@@H](NS(=O)(=O)c2ccccc2)[C@@H](CO)O1	-9.9[16.7 µM]	10.6
O=C(Nc1ccc(F)cc1)N[C@H]1CC[C@@H](CC(=O)N2CCCCC2)O[C@H]1CO	-4.7[16.7 µM]	-24.4
CC(C)CC#Cc1ccc2c(c1)O[C@@H](CN(C)Cc1ccc3c(c1)OCO3)[C@@H](C)CN([C@@H](C)CO)S2(=O)=O	22.8[16.7 µM]	-1.6
C[C@@H]1CN([C@H](C)CO)C(=O)Cc2cc(NS(=O)(=O)c3cn(C)cn3)ccc2O[C@@H]1CN(C)C(=O)Nc1ccc(F)cc1	0.8[16.7 µM]	4.6
C[C@@H]1CCCCO[C@@H](CN(C)C(=O)Nc2ccc(C(F)(F)F)cc2)[C@H](C)CN([C@@H](C)CO)C(=O)c2cc(NC(=O)c3ccncc3)ccc2O1	5.5[16.7 µM]	-0.7
C[C@@H]1CN([C@@H](C)CO)C(=O)c2cc(C#CC3(O)CCCC3)cnc2O[C@H]1CN(C)C(=O)C1CCC1	-0.8[16.7 µM]	8.2
C[C@@H]1CCCCO[C@H](CN(C)C(=O)c2ccccc2)[C@@H](C)CN([C@H](C)CO)C(=O)c2cc(NS(=O)(=O)c3ccc(Cl)cc3)ccc2O1	-45.1[16.7 µM]	5.2
C[C@@H]1CN([C@@H](C)CO)C(=O)c2cc(N(C)C)ccc2O[C@@H](C)CCCCO[C@@H]1CN(C)C	-7.0[16.7 µM]	5.4
Cc1noc(C)c1S(=O)(=O)Nc1ccc2c(c1)C(=O)N([C@H](C)CO)C[C@@H](C)[C@@H](CN(C)S(=O)(=O)c1cccs1)O2	-55.6[16.7 µM]	11.9
C[C@H](CO)N1C[C@H](C)[C@H](CN(C)S(=O)(=O)c2cccs2)Oc2ncc(C#Cc3ccc(F)cc3)cc2C1=O	-10.5[16.7 µM]	-9.7
COc1ccc(CN(C)C[C@@H]2Oc3c(NC(=O)C4CCCCC4)cccc3C(=O)N([C@@H](C)CO)C[C@H]2C)cc1	10.0[16.7 µM]	6.4
CNC(=O)C[C@H]1CC[C@H]2[C@@H](COc3ccc(NC(=O)Nc4cccc(Cl)c4)cc3C(=O)N2C)O1	7.3[16.7 µM]	24.2
COCC(=O)N1C[C@@H](C)[C@@H](OC)CN(C)C(=O)c2ccc(NC(=O)c3ccc(F)cc3)cc2OC[C@@H]1C	5.7[16.7 µM]	-1.1
C[C@@H]1CN([C@H](C)CO)C(=O)c2cccc(NC(=O)c3nc4ccccc4s3)c2O[C@@H]1CN(C)Cc1ccc(Oc2ccccc2)cc1	-9.0[16.7 µM]	9.4
COc1cccc(C#Cc2ccc([C@H]3[C@H](C#N)N(C(=O)C4CC4)[C@H]3CO)cc2)c1	7.9[16.7 µM]	-5.4
Cc1ccc(S(=O)(=O)N[C@H]2CC[C@H](CCNC(=O)C3CC3)O[C@H]2CO)cc1	-9.8[16.7 µM]	-17.5
C[C@@H]1CCCCO[C@H](CN(C)C(=O)Nc2ccccc2)[C@H](C)CN([C@H](C)CO)C(=O)c2cc(N(C)C)ccc2O1	-33.7[16.7 µM]	6.9
C[C@H](CO)N1C[C@H](C)[C@H](CN(C)C(=O)c2cccc(F)c2)Oc2cc(-c3cccnc3)ccc2S1(=O)=O	1.7[16.7 µM]	4.7
The list continues.
SMILES	Env fusion inh	Yeast UUG start
CC(C)NC(=O)N(C)C[C@@H]1OCCCC[C@@H](C)Oc2ccc(NS(=O)(=O)c3ccccc3)cc2C(=O)N([C@H](C)CO)C[C@@H]1C	19.6[16.7 µM]	0.2
CCCc1cn(CC[C@@H]2CC[C@@H](NC(=O)CCN3CCCCC3)[C@H](CO)O2)nn1	1.6[16.7 µM]	-7.1
C[C@H]1CN([C@@H](C)CO)S(=O)(=O)c2ccc(-c3ccncc3)cc2O[C@H]1CN(C)Cc1ccncc1	-8.8[16.7 µM]	-19.5
Cc1noc(C)c1S(=O)(=O)Nc1ccc2c(c1)C(=O)N([C@H](C)CO)C[C@@H](C)[C@H](CN(C)C(=O)Nc1ccc(C(F)(F)F)cc1)OCCCC[C@@H](C)O2	-51.9[16.7 µM]	-9.1
C[C@H](CO)N1C[C@H](C)[C@@H](CN(C)Cc2ccccn2)Oc2ncc(C3=CCCCC3)cc2C1=O	-9.2[16.7 µM]	-9.0
Cc1ccccc1S(=O)(=O)NCC[C@@H]1CC[C@@H](NC(=O)C2CCOCC2)[C@H](CO)O1	-8.1[16.7 µM]	34.3
C[C@@H]1CN([C@H](C)CO)C(=O)c2cc(C3=CCCC3)cnc2O[C@@H]1CN(C)C(=O)C1CCCCC1	0.1[16.7 µM]	32.9
CC(C)NC(=O)Nc1ccc2c(c1)C(=O)N([C@@H](C)CO)C[C@@H](C)[C@@H](CN(C)S(=O)(=O)c1cn(C)cn1)OCCCC[C@@H](C)O2	9.1[16.7 µM]	-18.1
O=C(NCC[C@H]1CC[C@@H](NC(=O)C2CC2)[C@@H](CO)O1)Nc1ccc(Cl)cc1	-9.6[16.7 µM]	-11.7
COc1ccccc1S(=O)(=O)N[C@H]1CC[C@H](CCNC(=O)C2CCC2)O[C@@H]1CO	6.3[16.7 µM]	-3.7
C[C@@H]1CCCCO[C@H](CN(C)S(=O)(=O)c2ccccc2)[C@@H](C)CN([C@H](C)CO)C(=O)c2cc(NS(=O)(=O)c3cccs3)ccc2O1	-11.6[16.7 µM]	-7.4
C[C@H]1CN([C@@H](C)CO)C(=O)c2cc(/C=C/c3ccccc3)cnc2O[C@@H]1CN(C)S(=O)(=O)c1ccccc1F	12.8[16.7 µM]	-9.2
COc1ccc(NC(=O)Nc2ccc3c(c2)OC[C@@H](C)NC[C@@H](C)[C@@H](OC)CN(C)C3=O)cc1	-6.6[16.7 µM]	8.4
O=C(C[C@H]1C=C[C@H](NS(=O)(=O)c2ccccc2)[C@H](CO)O1)NCc1ccncn1	3.9[16.7 µM]	-2.1
C[C@@H]1CCCCO[C@H](CN(C)S(=O)(=O)c2ccc(F)cc2)[C@@H](C)CN([C@@H](C)CO)C(=O)c2cc(NS(=O)(=O)c3ccc(F)cc3)ccc2O1	-90.7[16.7 µM]	1.6
COc1ccc(CN(C)C[C@H]2OCCCC[C@H](C)Oc3ccc(NC(=O)c4ccccc4)cc3C(=O)N([C@H](C)CO)C[C@H]2C)cc1	-3.0[16.7 µM]	6.2
O=C(NCC[C@H]1CC[C@H](NS(=O)(=O)c2ccccc2)[C@H](CO)O1)c1cc(Cl)cc(Cl)c1	-29.2[16.7 µM]	49.3
C[C@@H]1CCCCO[C@@H](CN(C)Cc2ccc(Cl)c(Cl)c2)[C@H](C)CN([C@@H](C)CO)C(=O)c2cc(NC(=O)Nc3ccc(C(F)(F)F)cc3)ccc2O1	-4.9[16.7 µM]	-6.8
COCC(=O)N(C)C[C@H]1Oc2ncc(-c3ccc(C#N)cc3)cc2C(=O)N([C@@H](C)CO)C[C@@H]1C	-3.4[16.7 µM]	6.4
Cc1noc(C)c1S(=O)(=O)Nc1ccc2c(c1)CC(=O)N([C@H](C)CO)C[C@H](C)[C@H](CN(C)Cc1ccncc1)O2	-0.2[16.7 µM]	-13.4
C[C@H](NC(=O)C[C@H]1CC[C@H](NC(=O)C2CC2)[C@H](CO)O1)c1ccccc1	-20.6[16.7 µM]	-4.8
COc1ccc(S(=O)(=O)N(C)C[C@@H]2Oc3ccc(NS(=O)(=O)c4ccc(F)cc4)cc3C(=O)N([C@H](C)CO)C[C@@H]2C)cc1	0.7[16.7 µM]	-2.3
O=C(C[C@H]1CC[C@@H](NC(=O)C2CCC2)[C@@H](CO)O1)NCc1ccncc1	-28.9[16.7 µM]	-2.6
N#CCC(=O)Nc1ccc(C(=O)OCC(=O)Nc2cccc3ccccc23)cc1	-12.5	-2.8
C[C@H]1CN([C@@H](C)CO)C(=O)c2cc(-c3cccnc3)cnc2O[C@@H]1CN(C)C(=O)Nc1ccc2c(c1)OCO2	21.1[16.7 µM]	1.2
Continuation:
SMILES	Env fusion inh	Yeast UUG start
Cc1noc(C)c1S(=O)(=O)Nc1ccc2c(c1)C(=O)N([C@H](C)CO)C[C@@H](C)[C@@H](CN(C)CC1CCCCC1)O2	-23.0[16.7 µM]	-1.7
COc1ccccc1C#Cc1ccc2c(c1)O[C@@H](CN(C)Cc1ccccc1)[C@H](C)CN([C@H](C)CO)S2(=O)=O	43.5[16.7 µM]	3.7
COc1ccc(NC(=O)N(C)C[C@@H]2Oc3ccc(NS(=O)(=O)c4ccc(Cl)cc4)cc3C(=O)N([C@@H](C)CO)C[C@@H]2C)cc1	-12.3[16.7 µM]	7.8
C[C@H](CO)N1C[C@H](C)[C@@H](CN(C)Cc2ccccc2)Oc2ncc(C3=CCCCC3)cc2C1=O	23.8[16.7 µM]	17.7
CN1C(=O)c2cc(NC(=O)Nc3cccc(Cl)c3)ccc2OC[C@H]2O[C@H](CC(=O)O)CC[C@H]21	2.4[16.7 µM]	13.4
C[C@H]1CCCCO[C@@H](CN(C)CC2CCCCC2)[C@@H](C)CN([C@@H](C)CO)C(=O)c2cc(NC(=O)Cc3ccccc3)ccc2O1	13.5[16.7 µM]	11.8
C[C@@H]1CN([C@H](C)CO)C(=O)c2cc(NC(=O)NC3CCCCC3)ccc2O[C@@H](C)CCCCO[C@@H]1CN(C)Cc1ccc2c(c1)OCO2	?	-19.6
CNC[C@@H]1OCCCC[C@H](C)Oc2ccc(NS(=O)(=O)c3ccccc3)cc2C(=O)N([C@@H](C)CO)C[C@@H]1C	-22.0[16.7 µM]	8.1
Cc1ccccc1S(=O)(=O)N[C@@H]1CC[C@@H](CCn2cc(-c3ccc(F)cc3)nn2)O[C@H]1CO	4.2[16.7 µM]	0.2
Cc1ccc(S(=O)(=O)N(C)C[C@H]2OCCCC[C@H](C)Oc3ccc(NC(=O)Nc4c(C)noc4C)cc3C(=O)N([C@H](C)CO)C[C@@H]2C)cc1	-9.3[16.7 µM]	0.3
C/C=C/c1ccc2c(c1)O[C@H](CN(C)Cc1cncnc1)[C@@H](C)CN([C@H](C)CO)S2(=O)=O	-14.1[16.7 µM]	20.5
C[C@H](CO)N1C[C@H](C)[C@@H](CN(C)Cc2ccc(C(=O)Nc3ccccc3N)cc2)Oc2ccc(NS(C)(=O)=O)cc2C1=O	13.4[16.7 µM]	13.0
C[C@H](CO)N1C[C@H](C)[C@H](CN(C)C(=O)CCCN(C)C)OCCCC[C@H](C)Oc2ccc(NC(=O)CCC(F)(F)F)cc2C1=O	-4.5[16.7 µM]	2.3
C[C@@H]1CCCCO[C@@H](CN(C)S(=O)(=O)c2ccccc2)[C@H](C)CN([C@H](C)CO)C(=O)c2cc(NS(=O)(=O)c3ccc(F)cc3)ccc2O1	9.5[16.7 µM]	-5.8
O=C(C[C@H]1C[C@@H]2c3cc(NC(=O)NC4CCCC4)ccc3O[C@@H]2[C@H](CO)O1)NC1CCCC1	7.8[16.7 µM]	-11.0
C[C@@H]1CCCCO[C@@H](CN(C)Cc2ccncc2)[C@H](C)CN([C@@H](C)CO)C(=O)c2cc(NC(=O)Nc3ccc4c(c3)OCO4)ccc2O1	12.4[16.7 µM]	5.9
CCCNC(=O)C[C@@H]1C[C@H]2c3cc(NC(=O)C4CCOCC4)ccc3O[C@H]2[C@H](CO)O1	-10.0[16.7 µM]	-16.5
O=C(C[C@H]1C[C@H]2c3cc(NC(=O)NC4CCCC4)ccc3O[C@H]2[C@H](CO)O1)NCCc1ccccc1	0.3[16.7 µM]	-18.1
COCC(=O)N(C)C[C@@H]1Oc2ncc(C#C[C@H](C)O)cc2C(=O)N([C@H](C)CO)C[C@H]1C	-3.2[16.7 µM]	-4.9

Complete entries, quoted from the list:
Results for `COCC(=O)N(C)C[C@@H]1Oc2ncc(C#C[C@H](C)O)cc2C(=O)N([C@H](C)CO)C[C@H]1C` = Env fusion inh: -3.2[16.7 µM]; Yeast UUG start: -4.9
Results for `COc1ccc(NC(=O)N(C)C[C@@H]2Oc3ccc(NS(=O)(=O)c4ccc(Cl)cc4)cc3C(=O)N([C@@H](C)CO)C[C@@H]2C)cc1` = Env fusion inh: -12.3[16.7 µM]; Yeast UUG start: 7.8

A second format for two compounds above:
| Molecule | Env fusion inh | Yeast UUG start |
| --- | --- | --- |
| C[C@H](CO)N1C[C@H](C)[C@@H](CN(C)Cc2ccc(C(=O)Nc3ccccc3N)cc2)Oc2ccc(NS(C)(=O)=O)cc2C1=O | 13.4[16.7 µM] | 13.0 |
| C[C@H](CO)N1C[C@H](C)[C@H](CN(C)C(=O)CCCN(C)C)OCCCC[C@H](C)Oc2ccc(NC(=O)CCC(F)(F)F)cc2C1=O | -4.5[16.7 µM] | 2.3 |

A portion of the library, so the mix of outcomes need not match the whole.
